# Source: PubChem BioAssay (SRMLSC)
# H5N1 antiviral = MDCK cell protection from H5N1 avian flu; cytopathic effect, luminescence, 72 h; active compounds read high; no value below 0 was filed and about half of the inactive calls have no number; reference of the scale not given here; inhibition, % at 50 µM; 96,000 compounds, 0.07% hits; in the data active means inhibition above about 25%
# Active calls of the source: *; i = inactive.
SMILES	H5N1 antiviral
O=C(O)C1CCCCC1C(=O)N1CC=C(c2ccccc2)CC1 (stereo unspecified)	i
CN1CCN(CCCn2cnc3c(=O)oc4ccccc4c32)CC1	3.2
CCOC(=O)C1=C(C)NC(C)=C(C(=O)OCC)C1C(=O)OCC(=O)N1CCCCC1CC (stereo unspecified)	i
COc1ccccc1Oc1c(C)oc2cc(OC(=O)c3ccco3)ccc2c1=O	1.0
CCCCC(c1nnnn1CC1CCCO1)N1CCN(c2nc3ccccc3s2)CC1 (stereo unspecified)	i
O=C(CSc1nc(-c2ccccc2)nc2ccccc12)Nc1nccs1	i
CC1(C)Cc2ccccc2/C(=C/C(=O)N2CCCCCC2)N1	2.4
CC(=O)N1c2ccccc2C(=O)C1N1CCCCC1 (stereo unspecified)	0.8
CCn1c(O)c(C=NCCc2c[nH]c3ccccc23)c(=O)[nH]c1=O	0.0
CC1/C(=N/O)CC(c2ccccc2)NC1c1ccccc1 (stereo unspecified)	2.4
CC(C)C1C(C#N)=C(N)Oc2n[nH]c(-c3cccs3)c21 (stereo unspecified)	i
Cn1cnc(S(=O)(=O)NCc2cccs2)c1	i
CCC(=O)Nc1nnc(C(C)(C)C)s1	i
CCOc1ccc(-c2nnc(NC(=O)CCCOc3cccc(C)c3)o2)cc1	i
Cc1ccc(N=Nc2c(=O)[nH]n3c(=O)cc(C)[nH]c23)cc1	i
COc1ccc(N2CCN(S(=O)(=O)c3cccc4cccnc34)CC2)cc1	1.7
Cc1cccc2sc(NC(=O)CN(C)S(=O)(=O)c3ccc(Br)s3)nc12	i
C=CCn1c(SCc2nc3ccccc3[nH]2)nnc1-c1ccccn1	0.3
O=C1C/C(=C/NCc2ccccc2)C(=O)N1	0.2
COc1ccc(CN(C)CC(=O)c2c(N)n(Cc3ccccc3)c(=O)n(C)c2=O)c(OC)c1	0.2
Cc1nnc(SC(C)C(=O)N2CCc3ccccc32)s1 (stereo unspecified)	i
COc1ccc(NC(=O)c2c(C(F)(F)F)nn(C)c2SCc2ccccc2)cc1	5.0
CCCOc1ccc(CC(=O)NCc2ccco2)cc1OC	i
Cc1cc2oc(=O)cc(C)c2cc1NC(=O)CCC(=O)O	i
CCc1cccc(NC(=O)CSCc2cc(=O)[nH][nH]2)c1	i
Cc1ccc(S(=O)(=O)N2CCCC(C(=O)NCC3COCCO3)C2)cc1 (stereo unspecified)	0.7
CC1=C(C)C(=O)N(c2ccc(C(=O)O)cc2)C1=O	0.5
CCOC(=O)C1=C(C)NC(=O)NC1c1ccc(OCC(=O)OC)c(OC)c1 (stereo unspecified)	0.0
CNC(=O)c1nn(-c2ccc(C)cc2)ccc1=O	i
CC(C)NC(=O)c1ccc(-c2ccccc2C(F)(F)F)o1	i
Cc1cc(C(=O)CNCc2ccco2)c(C)n1-c1ccc(F)cc1	i
COc1ccc(S(=O)(=O)N(C)CC(=O)N2CCN(Cc3ccccc3)CC2)cc1C	1.8
COCc1nc2ccccc2n1Cc1ccc(Br)cc1	1.8
CCCCCCC/C(C)=N/NC(=O)CC(=O)NCCc1ccccc1	0.3
CCN(CCCNC(=O)CCc1nc(-c2ccc(OC)cc2)no1)c1cccc(C)c1	i
COCCN1Cc2cccc(C(=O)Nc3cccc(OC)c3)c2C1=O	0.5
O=C1CCCN1c1ccc(S(=O)(=O)N2CCN(c3ccccn3)CC2)cc1	2.1
COc1ccc(N(CC(=O)Nc2cccc(OC)c2)S(=O)(=O)c2c(C)nn(C)c2C)cc1	0.6
COC(=O)CCC(NC(=O)OCc1ccccc1)C(=O)NC(CC(C)C)C(=O)OC (stereo unspecified)	i
CCOP(=O)(OCC)c1nc(/C=C/c2ccccc2)oc1NCc1ccccc1	i
CC(=O)c1c(C)[nH]c(C(=O)CSc2nc3ccc(C)cc3[nH]2)c1C	0.1
CC[N+](CC)(CCO)CCCN1C(=O)C2CC=C(Cl)CC2C1=O (stereo unspecified)	1.4
Cc1cccc(NC(=O)c2cc(-c3ccco3)nc3ccccc23)n1	0.8
O=C(O)C1CCCCC1C(=O)Nc1ccccc1Nc1ccccc1 (stereo unspecified)	i
O=C(O)C1Sc2[nH]c(=O)sc2C2c3cc(Cl)ccc3OC(=O)C12 (stereo unspecified)	i
CCOC(=O)C1CCCCC12C(C#N)=C(N)Oc1n[nH]c(C)c12 (stereo unspecified)	i
O=C(Cc1cccs1)NCc1ccc2c(c1)OCO2	1.2
C=CCN(C(=O)CCC(=O)Nc1cc(C)on1)C(C(=O)NC(C)(C)C)c1cccc(OC)c1OC (stereo unspecified)	i
OC(CN1CCN(c2ccccc2)CC1)Cn1c2ccccc2c2ccccc21 (stereo unspecified)	0.1
COCCOC(=O)C1=C(C)NC2=C(C(=O)CC(C)(C)C2)C1c1ccc(N(C)C)cc1 (stereo unspecified)	i
CC(C)CC(=O)N1CCN(S(=O)(=O)c2ccc3ccccc3c2)CC1	2.1
O=C(CCSc1nc2ccccc2o1)N1CCOCC1	0.1
O=C(c1ccccc1)c1ccc2nc(-c3ccc(NC(=O)c4ccccc4Br)cc3)[nH]c2c1	i
COCC(=O)Nc1ccc(C(C)C)cc1	2.1
CCCCCC1CCC(c2ccc(C(N)=O)cc2)CC1 (stereo unspecified)	1.1
CC1Cc2ccccc2N1C(=O)c1cnc2n(c1=O)CCS2 (stereo unspecified)	2.2
O=C(Nc1cccc(Cl)c1)N(CCN1CCOCC1)Cc1cccc(Cl)c1	i
Cc1ccc(S(=O)(=O)Nc2cc(C(=O)NCCN(C)C)ccc2N2CCCCC2)cc1	i
Cc1ccc(-c2noc(CCC(=O)Nc3ccc(C)cn3)n2)cc1	i
CC1CCN(C(=O)CSCC(=O)Nc2nc(-c3cccs3)cs2)CC1	7.1

# More entries:
SMILES	H5N1 antiviral
CCOC(=O)c1cc2c(=O)n3ccccc3nc2n(C(C)C)c1=NC(=O)c1ccncc1	1.2
Cc1ccccc1C(=O)c1c[nH]c(C(=O)NCc2cccs2)c1	i
COc1cccc(-c2csc(N3CCN(CC(=O)NNC(=O)c4ccc(Br)cc4)CC3)n2)c1	0.7
CC(=O)Nc1cccc(NC(=O)C2CCCN2C(=O)Nc2ccc(Cl)cc2)c1 (stereo unspecified)	0.6
COc1ccc(N2CCN(C(=O)c3ccc(OCc4c(C)noc4C)c(OC)c3)CC2)cc1	i
Nc1nonc1-c1nc2ccccc2n1CC(=O)N1CCCCC1	1.5
CN1CCc2nc3sc(C(=O)NC(C)(C)C)c(N)c3cc2C1	0.2
Cc1ccc(C(=O)NN(C)c2nc3ccccc3nc2C(F)(F)F)cc1	i
Cc1ccccc1CN1CCN(S(=O)(=O)c2ccc(F)cc2)CC1	0.5
COc1ccc(CCNC(=O)C(C)OC(=O)c2ccco2)cc1OC (stereo unspecified)	i
CCn1c(SCC(=O)NCC2CCCO2)nnc1-c1ccccc1 (stereo unspecified)	0.3
Cc1cc(=O)oc(C)c1C(=O)Nc1cccc2ccccc12	0.7
CC(=O)c1ccc(NC(=O)Nc2ccccc2)cc1	i
CCc1ccc(S(=O)(=O)NCc2cn3ccsc3n2)s1	i
O=C1CC(C(F)(F)C(F)(F)C(F)(F)C(F)F)=Nc2ccccc2N1	0.5
CCOC(=O)c1ccccc1-c1csc(NS(=O)(=O)c2ccc(Cl)cc2)n1	i
CCC(=O)Nc1cccc(C(=O)c2ccccc2)c1	i
CCCN(CCC)CCNC(=O)C1CCN(Cc2nc(-c3ccc(Cl)cc3)oc2C)CC1	i
Cc1n[nH]c(=O)n1-c1cccc(C(F)(F)F)c1	i
O=C1CC(c2ccccc2)CC(O)=C1C=NC1CCCCC1 (stereo unspecified)	i
COc1ccc(NC(=O)c2cc(-c3cccnc3)nc3c(C)c(C)ccc23)c(OC)c1	i
COc1ccc(OC)c(N(CC(=O)Nc2cccnc2)S(=O)(=O)c2ccc(C)cc2)c1	i
NC(=O)c1ccc(C(F)(F)F)n(Cc2c(Cl)cccc2Cl)c1=O	i
Cc1sc2nc(C3CCCCC3)nc(SCC(=O)N3CC(=O)Nc4ccccc43)c2c1C	2.4
COCC(=O)NC(C)c1nc2ccccc2[nH]1 (stereo unspecified)	i
Cc1ccc2cc(C(c3nnnn3C3CCCC3)N(Cc3ccco3)Cc3cccs3)c(=O)[nH]c2c1 (stereo unspecified)	i
CC(/C=N/NC(=O)c1cc(C(C)(C)C)[nH]n1)=C\c1ccccc1	3.5
Cc1ccc(SCc2[nH]nc3c2C2(C(=O)Nc4ccc([N+](=O)[O-])cc42)C(C#N)=C(N)O3)cc1 (stereo unspecified)	i
CN1CCN(C(=O)c2cc3nc(-c4ccccc4)cc(C(F)(F)F)n3n2)CC1	0.6
CC1Cc2ccccc2N1C(=O)CN1C(=O)COc2ccccc21 (stereo unspecified)	0.1
CCCC(=O)Nc1nc(-c2ccc(OC)cc2)cs1	0.4
O=C(CSc1ccc(Cl)cc1)NCC1CCCO1 (stereo unspecified)	i
CCOC(=O)c1c(N)n(CCOC(=O)c2cccs2)c2nc3ccccc3nc12	i
COc1cc(OC)cc(C(=O)N2CCCc3ccccc32)c1	0.7
CCN(C(=O)c1ccc(NC(C)=O)cc1)c1ccccc1	0.4
CSc1nnnn1-c1ccc(C(=O)O)cc1	i
CCCNC(=O)N[C@@H](CCSC)C(=O)OC	i
Cc1cc(C(=O)Nc2ccc(S(=O)(=O)N3CCCC3)cc2)cs1	1.0
CC(C)(C)NC(=O)COC(=O)c1cncc(Br)c1	i
Cc1nc2ccc(S(=O)(=O)NCC(=O)N3CCc4ccccc4C3)cc2s1	0.1
COCCCNC(=O)c1c(N)n(/N=C/c2ccccn2)c2nc3ccccc3nc12	i
CC1(C)C=C(c2ccc(C=O)s2)CC(C)(C)N1	1.3
Clc1c(-c2nnc3n2CCCCC3)sc2ccccc12	1.0
O=C(Nc1ccccc1)c1cccnc1Nc1ccccc1	1.8
Cc1cccc(C)c1NC(=O)CN1CCNCC1	i
O=C(OC(C(=O)NCc1ccc2c(c1)OCO2)c1ccccc1F)c1ccco1 (stereo unspecified)	1.8
Cc1cccc(OCC(=O)O/N=C(\N)Cc2ccc(Cl)cc2)c1	i
CCOc1ccc(NS(=O)(=O)c2ccc3[nH]c(=O)oc3c2)cc1	0.6
Cc1noc(C)c1C(=O)OCC(=O)/C=C1\N(C)c2ccccc2C1(C)C	1.0
CC1=[N+]([O-])C2(N)CCc3nonc3C2(O)C1 (stereo unspecified)	0.3
O=[N+]([O-])c1ccccc1/C=N/N1CCN(c2ccccn2)CC1	i
COCCCn1c(SCC(=O)Nc2ccc(C(C)=O)cc2)nc2ccccc2c1=O	i
Clc1cccc(Cl)c1CSc1nnc(/C=C/c2ccccc2)o1	0.0
CCCCC(=O)Nc1cc(NC(=O)CC)ccc1Cl	i
O=c1[nH]c(=O)n(C2CCCCCC2)c(O)c1C=NCc1ccc(F)cc1	1.5
CCO/C=N/c1c(C#N)c(CC#N)nn1-c1ccccc1	1.0
Cc1c(C(=O)OCc2ccccc2)nnn1-c1nonc1N	0.1
CCOc1cc(N2CCOCC2)c(OCC)cc1NC1=NCCCCC1	0.6
COC(=O)c1ccc(-c2sc3nc(N4CCOCC4)c4c(c3c2N)CCCC4)o1	1.8
CC(C)OCCCNC(=O)Cn1nc(-c2ccccc2)ccc1=O	0.5

# Quoted at random: four entries already listed.
SMILES	H5N1 antiviral
Clc1c(-c2nnc3n2CCCCC3)sc2ccccc12	1.0
CCO/C=N/c1c(C#N)c(CC#N)nn1-c1ccccc1	1.0
CCOc1ccc(NS(=O)(=O)c2ccc3[nH]c(=O)oc3c2)cc1	0.6
CCOc1cc(N2CCOCC2)c(OCC)cc1NC1=NCCCCC1	0.6

# (cont.)
SMILES	H5N1 antiviral
Cc1ccc(SCc2[nH]nc3c2C2(C(=O)Nc4ccc(F)cc42)C(C#N)=C(N)O3)cc1 (stereo unspecified)	0.5
Cc1cc(C(F)(F)F)nn1CC(=O)Nc1cccnc1	i
O=C(Oc1ccc(Cl)c2cccnc12)c1ccco1	5.0
O=c1c2c(nc3cc(-c4ccccc4)[nH]n13)CCS2	0.2
COc1ccc(NC(=O)CSc2nccn2-c2cccc(OC)c2)cc1	0.4
O=C(COC(=O)c1ccc(=O)n(Cc2ccccc2)n1)Nc1ccc2c(c1)OCCO2	i
CCN1CCc2c(C#N)c(N3CCOCC3)nc(NCCO)c2C1	1.1
COC(=O)c1sc2ncccc2c1OCc1ccccc1Cl	i
Cc1nnsc1SCC(=O)O	0.3
CCOC(=O)c1nc(S(C)(=O)=O)ncc1N1CCOCC1	i
C=CC(=C)CC(NC)c1ccccc1 (stereo unspecified)	0.1
COC(=O)c1ccccc1NC(=O)CN1CCC(C(=O)c2ccc3c(c2)OCCO3)CC1	i
COC(=O)Cc1c(C)nc2nc(NCc3c(F)cccc3Cl)[nH]n2c1=O	i
O=C(NC1CCN(Cc2ccccc2)CC1)C1CCN(S(=O)(=O)c2cccc3nsnc23)CC1	0.6
Cc1ccc(-c2cc(C#N)c(=O)n(Cc3c(Cl)cccc3Cl)c2)cc1	0.1
Cc1cccc(C(=O)O/N=C(\N)Cc2ccc([N+](=O)[O-])cc2)c1	0.0
COc1ccc(OCCCc2c(C)n[nH]c2C)cc1	i

# An excerpt from above in order of molecular weight, ascending:
SMILES	H5N1 antiviral
COc1ccc(OCCCc2c(C)n[nH]c2C)cc1	i
O=c1c2c(nc3cc(-c4ccccc4)[nH]n13)CCS2	0.2
Cc1cc(C(F)(F)F)nn1CC(=O)Nc1cccnc1	i
CCN1CCc2c(C#N)c(N3CCOCC3)nc(NCCO)c2C1	1.1
O=C(COC(=O)c1ccc(=O)n(Cc2ccccc2)n1)Nc1ccc2c(c1)OCCO2	i
Cc1ccc(SCc2[nH]nc3c2C2(C(=O)Nc4ccc(F)cc42)C(C#N)=C(N)O3)cc1 (stereo unspecified)	0.5

# This is a subset; the hit share may differ from the screen's.
